Assay outcomes (PubChem BioAssay)
EBI2 antag: antagonists of human EBI2 receptor | 360,000 compounds, 0.81% hits | EBI2 beta-arrestin recruitment, luminescence, 7a,25-OHC stimulated | inhibition, % at 5 µM; in the data active = inhibition above about 38%;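 note: enzyme fragment complementation signal reports receptor beta-arrestin coupling in cells; 0% = agonist plus DMSO wells and 100% = wells without agonist; some results beyond the cut were filed as inactive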
Target sequence (P32249 whole entry, looked up, the tested form may be a part): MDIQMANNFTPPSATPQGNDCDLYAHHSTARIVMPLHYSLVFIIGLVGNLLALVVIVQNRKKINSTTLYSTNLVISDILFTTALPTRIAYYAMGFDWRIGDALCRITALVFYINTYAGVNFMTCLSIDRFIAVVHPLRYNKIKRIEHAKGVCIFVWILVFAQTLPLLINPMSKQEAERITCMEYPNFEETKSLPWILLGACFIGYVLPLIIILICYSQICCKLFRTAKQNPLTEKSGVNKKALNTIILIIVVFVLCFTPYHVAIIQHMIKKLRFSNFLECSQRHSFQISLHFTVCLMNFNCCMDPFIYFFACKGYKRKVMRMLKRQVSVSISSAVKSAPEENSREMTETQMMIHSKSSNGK
CCR6 antag: blocks CCL20-driven beta-arrestin recruitment at human CCR6. P51684. CHO-K1 CCR6 PathHunter beta-arrestin, luminescence, CCL20-stimulated. inhibition, % at 20 µM. 340,000 compounds, 0.49% hits. AID 493098;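 active = compounds whose inhibition of the agonist-driven luminescence signal at 20 µM reaches about 50%, limit read from the data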;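 note: cells stimulated with CCL20 at 14 nM final; plate controls were DMSO with CCL20 for no effect and DMSO without agonist for full effect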
Jurkat NFkB inh: lowers PMA/ionomycin-induced NF-kB signal in Jurkat cells. inhibition, % at 4 µM. PMA/ionomycin-induced NF-kB luciferase reporter, luminescence. 330,000 compounds, 0.53% hits
UBC13 polyUb: human UBC13 polyubiquitination inhibition. P61088. UBC13 polyubiquitin chain formation, TR-FRET. inhibition, % at 20 µM. 330,000 compounds, 0.47% hits. AID 485273; in the data active = inhibition above about 45%, passing the limit was not always enough; inconclusive = no clear call, values can overlap the other calls
Target sequence (P61088 whole entry, looked up): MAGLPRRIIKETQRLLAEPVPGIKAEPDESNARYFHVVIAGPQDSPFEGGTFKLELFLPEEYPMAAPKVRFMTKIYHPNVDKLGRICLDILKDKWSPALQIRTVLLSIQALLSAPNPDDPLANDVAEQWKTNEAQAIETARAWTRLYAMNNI
697 NFkB inh: inhibitors of the PMA/ionomycin-induced NF-kB reporter in 697 B cells; 330,000 compounds, 0.33% hits; inhibition, % at 4 µM; AID 435022; 697 B-cell NF-kB luciferase reporter, 16 h; in the data active = inhibition above about 35%
Gli-Sufu block: antagonists of Gli-Sufu signaling; Sufu-KO-LIGHT fibroblasts, Gli luciferase reporter luminescence; inhibition, % at 5 µM; 340,000 compounds, 0.74% hits;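 active = inhibition above about 55%, limit read from the data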;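 note: 0% = DMSO-treated cells and 100% = wells with medium but no cells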
SENP8 inh: blocks the human protease SENP8; 330,000 compounds, 1.2% hits; Q96LD8; purified SENP8, Z-RLRGG-aminoluciferin cleavage, luminescence; inhibition, % at 10 µM
Target sequence (Q96LD8 whole entry, looked up): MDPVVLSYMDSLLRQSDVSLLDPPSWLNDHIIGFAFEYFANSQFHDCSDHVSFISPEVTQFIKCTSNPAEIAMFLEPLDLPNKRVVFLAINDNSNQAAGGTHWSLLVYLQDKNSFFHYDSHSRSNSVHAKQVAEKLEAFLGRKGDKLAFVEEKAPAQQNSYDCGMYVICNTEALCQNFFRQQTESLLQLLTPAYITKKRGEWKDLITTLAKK
* hit, by the source's call; ? = inconclusive; nt = not tested or not shown. Cut-off read from the data, not from the text of the source, unless noted: active = inhibition above about 50%; inactive = the rest. Not all compounds are listed; count on the stated rates, not on these rows.

compound	EBI2 antag	CCR6 antag	Jurkat NFkB inh	UBC13 polyUb	697 NFkB inh	Gli-Sufu block	SENP8 inh
COc1cccc(C2C3CN(C)CC=C3C(C#N)=C(N)C2(C#N)C#N)c1OC (centres undefined)	-3	11	14	-63	11	7	12
CCN(CC)c1ccc(-c2nn3c(-c4n[nH]c5c4CCC5)nnc3s2)cc1	-6	0	58*	-6	-9	46	-8
CC1(C)CC(=O)c2cc(OCC(=O)O)ccc2O1	3	-12	17	13	10	2	-8
CCC(C)(C)n1nnnc1CN(Cc1cccs1)Cc1cc2cc(OC)ccc2[nH]c1=O	0	9	-16	5	9	-5	-3
CC(=O)Nc1nc2n(n1)C(c1ccccc1)C=C(c1ccccc1)N2 (centres undefined)	-14	8	4	13	27	9	-5
CCOC(=O)c1cc2c(=O)n3ccccc3nc2n(Cc2ccccc2)c1=N	1	13	2	-16	0	9	-12
Nc1c(C(=O)OCC2CCCO2)c2nc3ccccc3nc2n1C1CCCC1 (centres undefined)	34	25	-9	32	16	15	11
COc1cccc2c(=O)c3c(cnn3C)n(C)c12	4	-23	-13	6	12	-6	-12
CCOC(=O)c1c(-c2ccc(C)o2)csc1N	-16	7	5	-3	17	2	-3
CCCCOCCCn1c(-c2ccco2)nc2nc3ccccc3nc21	-6	5	-6	16	8	6	3
Cc1sc2nc3ccc(N4CCCCC4)nn3c(=O)c2c1C	9	-4	-11	-7	-10	-26	-2
O=C(c1ccc(CNS(=O)(=O)c2cccc(C(F)(F)F)c2)cc1)N1CCOCC1	3	-13	6	1	-6	-2	0
COC(=O)c1c(NC(=O)c2ccco2)sc(C)c1C	1	9	-24	10	-29	-20	-11
O=c1oc2cc(O)ccc2c2c1CCCC2	-1	-2	-1	20	16	1	2
Nc1c(C(=O)Nc2ccccc2)sc2nc(-c3ccco3)ccc12	17	15	-16	0	-12	-45	12
COc1cc2cc(CN(C(=O)Nc3ccccc3)C3CCCC3)c(=O)[nH]c2cc1OC	5	12	-13	-5	10	0	-5
COc1ccc2cc3c(N)c(C(=O)NCc4ccco4)sc3nc2c1	7	10	-20	-2	-3	-67	11
COCc1cc(C)nc2sc(C(=O)Nc3nccs3)c(N)c12	0	-1	-10	0	0	-32	1
COc1cccc(C2C=C(c3ccc(OC)cc3OC)Nc3nnnn32)c1 (centres undefined)	2	-1	10	-7	-33	5	-7
CC(C)n1cc(/C=C(\C#N)S(=O)(=O)c2ccccc2)c2ccccc21	11	8	-5	-6	-27	0	-1
Cc1ccc(C(=O)Nc2nc3c(s2)CCCC3)o1	-4	9	-155	-8	-197	-103	82*
CC(C)N(C(=O)Nc1ccc2nccnc2c1)C(C)C	-3	-3	-24	-25	-1	4	0
Cc1cccc(N=c2oc3cc(O)ccc3cc2C(N)=O)c1	11	22	-2	9	-93	-28	7
C=CCn1c(-c2cccs2)nc2nc3ccccc3nc21	-6	-16	-22	22	-17	1	10
COCCCNC(=O)c1ccc2nc3ccccc3c(=O)n2c1	-4	5	4	23	0	7	-7
Nc1c(C(=O)NCCN2CCOCC2)c2nc3ccccc3nc2n1CCc1ccccc1F	27	2	12	-9	12	4	6
COc1ccc(C2=CC(c3c(C)nn(-c4ccccc4)c3Cl)n3nnnc3N2)cc1OC (centres undefined)	9	29	-2	1	-8	2	-2
CCCn1c(=N)c(C(=O)NCc2ccc3c(c2)OCO3)cc2c(=O)n3cccc(C)c3nc21	-7	1	-13	-15	9	14	-1
COc1cccc(Cn2c(N)c(C#N)c3nc4ccccc4nc32)c1OC	-14	15	12	-6	-10	8	38
Cc1nnc2sc(-c3cccc(NC(=O)c4cccnc4)c3)nn12	-5	-21	8	-2	11	10	2

(list continues)
compound	EBI2 antag	CCR6 antag	Jurkat NFkB inh	UBC13 polyUb	697 NFkB inh	Gli-Sufu block	SENP8 inh
COc1ccc2[nH]c(=O)c(CN(Cc3nnnn3Cc3ccccc3)CC3CCCO3)cc2c1 (centres undefined)	-6	-6	-4	-4	-14	0	-13
CCOC(=O)C1=C(C)NC2=C(C(=O)CCC2)C1c1cccnc1 (centres undefined)	5	0	-4	9	15	nt	2
Cc1[nH]ccc2c1[nH]c1cc(=O)ccc12	-4	-8	17	18	-8	-10	-8
c1cc2c3c(cccc3c1)C(N1CCCCC1)=N2	3	7	-16	-46	-1	8	36
O=C(NCc1ccco1)c1cccn2c(=O)c3sccc3nc12	4	26	6	-6	14	-2	4
Cc1[nH]c2ccccc2c1CC(=O)O	12	-5	-6	-2	22	4	-3
CCOc1ccc2nc(N3CCCN(C(=O)Nc4ccccc4C)CC3)c(C#N)cc2c1	1	6	-15	1	11	11	-9
CN(C)CCNC(=O)c1ccc2c(c1)N(Cc1ccc(F)cc1)CCS2	1	13	-59	31	-54	-1	4
CSc1nc(N)nc(SCC(=O)c2ccccc2)c1C#N	-3	18	4	6	-35	-10	-2
O=c1c2cc(N3CCOCC3)ccc2[nH]c(=S)n1CCCN1CCCCCC1	-18	-1	-9	-15	-20	12	-2
CC(=O)c1c(C)nc2nonc2c1N	-14	5	21	10	8	10	6
Cn1c2ccc(Cl)cc2c2nc3ccccc3nc21	17	-18	-26	49*	-23	-19	11
O=c1oc2c(CN3CCOCC3)c(O)c(Cl)cc2c2c1CCCC2	10	-7	0	12	1	6	-7
Nc1ccc2nn(-c3cccc4ccccc34)nc2c1	-9	4	2	-18	-26	-3	85*
Cc1ccc(S(=O)(=O)c2c(N)n(C)c3nc4ccccc4nc23)cc1	14	3	0	8	13	1	2
O=C(Nc1ccc(Cl)cc1)c1cc2nc(-c3ccco3)cc(C(F)(F)F)n2n1	19	-5	8	-1	7	10	-6
CCCCOn1c(C)c(C(=O)OCC)c2c3nonc3ccc21	-8	30	5	16	15	24	-1
O=C(Nc1ccc2nc(-c3cccs3)c(-c3cccs3)nc2c1)N1CCOCC1	-11	7	-12	-17	9	-1	-6
COn1c2c(c3c4nonc4ccc31)CCCC2	-10	-6	27	-13	12	6	2
COc1cccc(C2C=C(c3ccc(Br)s3)Nc3ncnn32)c1OC (centres undefined)	4	18	-14	-7	15	-7	-11
CC(C)n1c(=NC(=O)c2ccco2)c(C#N)cc2c(=O)n3ccccc3cc21	-8	17	-5	-7	-32	6	-2
CCCCC(=O)Nc1nn(CCC)c2nc3ccccc3cc12	1	-2	-15	8	-11	2	0
CC(=O)C1=C(C)NC(SCC(=O)c2ccc(Cl)cc2)=C(C#N)C1c1ccco1 (centres undefined)	8	29	9	-7	-42	6	3
CCC(C)(C)n1nnnc1C(c1cc2ccc(OC)cc2[nH]c1=O)N1CCc2ccccc2C1 (centres undefined)	-2	8	-3	-7	-6	10	0
COc1ccc(OC)c(C2C3CN(C(C)C)CC=C3C(C#N)=C(N)C2(C#N)C#N)c1 (centres undefined)	19	3	8	-41	8	1	5
CC(=O)Oc1ccc2cc(-c3nc4ccccc4n3C)c(=O)oc2c1	-7	-31	-47	5	-104	-51	-18
O=C(O)Cn1c2c(c3ccccc31)CCCC2	2	4	11	-7	16	1	3
Cc1cccn2c(=O)c3cc(C(=O)NC(C)c4ccccc4)c(=N)n(CCCn4ccnc4)c3nc12 (centres undefined)	-7	6	-7	7	24	4	-3
CCC(=O)Nc1c(OC(=O)CC)ccc2c(C)cc(=O)oc12	-1	7	-9	13	4	-15	3
CCCCNC(=O)c1ccc2nc(-c3ccco3)c(-c3ccco3)nc2c1	-12	12	11	-79	2	10	12

3 compounds already listed, sorted by count of non-hydrogen atoms, ascending.
compound	EBI2 antag	CCR6 antag	Jurkat NFkB inh	UBC13 polyUb	697 NFkB inh	Gli-Sufu block	SENP8 inh
Cc1sc2nc3ccc(N4CCCCC4)nn3c(=O)c2c1C	9	-4	-11	-7	-10	-26	-2
CCCCNC(=O)c1ccc2nc(-c3ccco3)c(-c3ccco3)nc2c1	-12	12	11	-79	2	10	12
CCC(C)(C)n1nnnc1C(c1cc2ccc(OC)cc2[nH]c1=O)N1CCc2ccccc2C1 (centres undefined)	-2	8	-3	-7	-6	10	0

(list continues)
compound	EBI2 antag	CCR6 antag	Jurkat NFkB inh	UBC13 polyUb	697 NFkB inh	Gli-Sufu block	SENP8 inh
CC(C)Cn1c(CN(C)Cc2ccccc2)nc2c1c(=O)n(C)c(=O)n2C	-7	8	7	7	-12	21	5
Cc1ccc(Cn2c(=N)c(C(=O)NCc3ccco3)cc3c(=O)n4ccccc4nc32)cc1	18	9	7	-1	16	16	5
O=C(O)C1CC(c2ccc(F)cc2)=NO1 (centres undefined)	-13	5	3	-18	1	-5	-6
N=c1c(C(=O)NCC2CCCO2)cc2c(=O)n3ccccc3nc2n1Cc1cccnc1 (centres undefined)	-4	14	-8	-2	-3	11	-7
CCOC(=O)c1c(NC(=O)C(F)(OC)C(F)(F)F)sc2c1CCN(C)C2 (centres undefined)	0	-8	-4	-1	6	9	-11
CSc1nc(N)nc(SCC(=O)c2ccc(C)cc2)c1C#N	-6	16	-15	-11	-48	-12	-6
COCCCn1c(=S)[nH]c2ccc(N3CCOCC3)cc2c1=O	6	-8	-1	0	-7	1	-5
Cn1c(C(=O)NCCC2=CCCCC2)cc2c(=O)n3ccccc3nc21	-5	-10	-51	7	-102	-53	-1
CC1=C(C(=O)OCCOC(C)C)C(c2cccnc2)C2=C(CCCC2=O)N1 (centres undefined)	-3	2	-17	-1	-51	-2	1
CCn1nc(-c2ccccc2)c2nc3ccccc3nc21	9	7	7	?	6	11	-2
CC1CCCN(CCCNC(=O)c2coc3nc4ccccc4nc23)C1 (centres undefined)	-1	12	-19	10	3	29	59*
NC(=O)c1cc2ccc(O)cc2oc1=NCc1ccccc1	3	-52	-4	9	18	2	-6
CCCCCn1c(-c2ccco2)nc2nc3ccccc3nc21	1	15	1	15	29	9	-12
C=CCn1c(N)c(C(=O)OCCC)c2nc3ccccc3nc21	15	27	3	12	24	3	-2
Cc1cccc(S(=O)(=O)C(C#N)c2nc3ccccc3nc2N2CCCC2)c1 (centres undefined)	-8	13	9	-38	9	12	9
O=C(O)c1ccccc1-c1ccc(/C=c2\sc3nc4cc(Br)cnc4n3c2=O)o1	1	27	40	-207	12	4	32
COc1cc2c(cc1OC)CN(Cc1cccs1)CC2	-2	6	-10	1	0	4	4
O=C(Nc1sc2c(c1C(=O)NCC1CCCO1)CCCC2)c1cccs1 (centres undefined)	10	11	2	10	1	19	-5
COc1cc([C@@H]2c3cc4c(cc3[C@@H](O[C@@H]3O[C@@H]5CO[C@@H](C)O[C@H]5[C@H](O)[C@H]3O)[C@H]3COC(=O)[C@H]23)OCO4)cc(OC)c1O	-1	3	48	12	-213	82*	11
CCOc1ccc2nc3c(cc2c1)CN(CCCO)C(=NCCOC)S3	9	10	-9	3	-1	-9	2
COc1cccc(N2C(=O)C3CC=C(Cl)CC3C2=O)c1 (centres undefined)	-2	-3	-3	0	-11	-8	-4
CCOCCCn1c(=N)c(C(N)=S)cc2c(=O)n3cccc(C)c3nc21	6	-2	11	-17	12	7	-1
